Assay outcomes: PubChem BioAssay, National Center for Advancing Translational Sciences (NCATS)
Cruzain Triton: qHTS Assay for Promiscuous and Specific Inhibitors of Cruzain (with detergent) | purified cruzain, Z-FR-AMC fluorescence, 0.01% Triton | Potency, µM, for the others: max response, negative = inhibition, hits mostly inhibitors | 200,000 compounds, 0.43% hits | AID 1478, 2009;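 also: plate controls were neutral wells for no effect and buffer without enzyme for full effect; nearly all actives have a fitted effect of over 40% in size; top concentration of the series not given in the record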
Target sequence (P25779 123-467 limits assumed): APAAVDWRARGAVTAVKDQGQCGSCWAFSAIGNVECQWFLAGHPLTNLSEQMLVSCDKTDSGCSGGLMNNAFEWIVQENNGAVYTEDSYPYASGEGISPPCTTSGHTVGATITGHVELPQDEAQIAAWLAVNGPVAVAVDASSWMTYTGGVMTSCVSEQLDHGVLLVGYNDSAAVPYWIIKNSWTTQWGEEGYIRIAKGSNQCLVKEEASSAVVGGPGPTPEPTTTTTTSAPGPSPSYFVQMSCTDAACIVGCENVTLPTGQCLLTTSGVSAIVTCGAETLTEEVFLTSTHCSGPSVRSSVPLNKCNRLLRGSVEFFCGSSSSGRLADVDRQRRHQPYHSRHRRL
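Enzyme 1.5 nM, Z-FR-AMC 2 uM, NaOAc 100 mM pH 5.5, DTT 5 mM, Triton X-100 0.01%; 15 min RT compound preincubation; kinetic ex360/em450, 60 s delta.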
RE007 growth inh: qHTS Assay for Inhibitors of the HIV-1 protein Vpr. S. pombe RE007 Vpr strain, BacTiter-Glo ATP luminescence, 24 h; control for the full effect not named in the record. Potency, µM (doses to about 92.2 µM), without a hit: top-dose activity change, negative = less growth. 360,000 compounds, 0.21% hits. AID 651644, 2012; active = well fitted falling curve with a large enough effect; inconclusive = small, poorly fitted or top-dose-only effect; inactive = no such curve, though single readings can be large or run the other way;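 also: % is scaled to controls: 0 for no effect and ±100 for the full control effect; nearly all actives have a fitted effect of over 50% in size; the assay follows cell death caused by Vpr and the record does not say whether a fall means rescue or toxicity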
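Fission yeast strain RE007, carrying one chromosomally integrated HIV-1 vpr copy, was seeded at OD 0.01 in PMG+AL medium with 23 nL pinned compound. After 24 h at 30 °C and 99% humidity, viability was read by BacTiter-Glo luminescence.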
Cruzain noTriton: qHTS Assay for Promiscuous and Specific Inhibitors of Cruzain (without detergent) | Cruzipain (Trypanosoma cruzi), P25779 | purified cruzain, Z-FR-AMC fluorescence, no detergent | Potency, µM, inactives show max response, negative = inhibition, most hits filed as inhibitors | 200,000 compounds, 2.3% hits | AID 1476, 2009;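 also: plate controls were enzyme without inhibitor for no effect and buffer without enzyme for full effect; nearly all actives have a fitted effect of over 40% in size; top concentration of the series not given in the record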
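Detergent-free condition (0.00005% Triton X-100) in acetate buffer pH 5.5 with DTT. 1.5 nM enzyme and compound were pre-mixed 15 min, then 2 uM Z-FR-AMC substrate added; reaction progress from fluorescence change between first and third reads (60 s).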
StopGo reporter: High Throughput Screening for Foot and Mouth Disease Virus Antivirals | human cells with a luciferase reporter of 2A StopGo recoding; control for the full effect not named in the record | Potency, µM (doses to about 57.9 µM), for the others: top-dose signal change, negative = less light | 410,000 compounds, 1.2% hits | AID 1159524, 2015; active = well fitted falling curve with a large enough effect; inconclusive = small, poorly fitted or top-dose-only effect; inactive = no such curve, though single readings can be large or run the other way; tested in HEK293T cells; also: % is scaled to controls: 0 for no effect and ±100 for the full control effect; nearly all actives have a fitted effect of over 45% in size; luciferase light after 4 h
Marburg entry inh: qHTS for inhibitors of binding or entry into cells for Marburg Virus | Marburg virus pseudotyped entry inhibition, cell reporter; control for the full effect not named in the record; about a third of the inactives were read at about 46 µM | Potency, µM (doses to about 37.8 µM), without a hit: top-dose activity change, negative = inhibition, most hits filed as inhibitors | 300,000 compounds, 1.8% hits | AID 540276, 2011; active = well fitted inhibition curve with a large enough effect; inconclusive = small, poorly fitted or top-dose-only effect, or effect the other way; inactive = flat fitted curve, though single readings scatter; tested in HEK293 cells; about a fifth of its hits are not listed in these tables; also: % is scaled to controls: 0 for no effect and ±100 for the full control effect; luciferase read-out
NS1 function inh: qHTS Assay for Inhibitors of Influenza NS1 Protein Function; Potency, µM (doses to about 46.1 µM), without a hit: top-dose activity, positive = more growth; S. cerevisiae slowed by influenza A NS1, growth recovery by OD600; AID 2326, 2010; 270,000 compounds, 0.4% hits; active means well fitted rising curve with a large enough effect; inconclusive means small, poorly fitted or top-dose-only effect; inactive means no such curve, though single readings can be large or run the other way; also: nearly all actives have a fitted effect of over 50% in size
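Recovery from NS1-induced slow growth read by OD600 in budding yeast switched to galactose assay medium (pH 6.0, -URA) at 1:100 dilution. Compound 23 nl per well; the matching strain lacking NS1 serves as control.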
SARS PLP yeast: qHTS of Yeast-based Assay for SARS-CoV PLP. S. cerevisiae expressing SARS-CoV PLpro, growth rescue; control for the full effect not named in the record. Potency, µM (doses to about 32.9 µM), without a hit: at the highest dose activity, positive = growth rescue. 330,000 compounds, 0.19% hits; active means well fitted rising curve with a large enough effect; inconclusive means small, poorly fitted or top-dose-only effect; inactive means no such curve, though single readings can be large or run the other way; also: 0% is about no effect; nearly all actives have a fitted effect of over 55% in size; growth read by luminescence after 48 h
LASV entry inh: qHTS for Inhibitors of binding or entry into cells for Lassa Virus | 300,000 compounds, 1.2% hits | Lassa virus pseudotype entry inhibition, cell reporter; control for the full effect not named in the record | Potency, µM (series often up to 37.9 µM), without a hit: at the top dose activity change, negative = inhibition, most hits filed as inhibitors; active means well fitted inhibition curve with a large enough effect; inconclusive means small, poorly fitted or top-dose-only effect, or effect the other way; inactive means flat fitted curve, though single readings scatter; tested in HEK293 cells; also: % is scaled to controls: 0 for no effect and ±100 for the full control effect; nearly all actives have a fitted effect of over 50% in size; luciferase read-out
Numbers without * were called inactive; ? = inconclusive; nt = not tested or not shown; & = joins results of further samples; [ ] = dose if it differs, or a comment. Unless noted, calls follow the shape of the dose curve; as a rule, active = well fitted curve in the direction sought with a large enough effect; inconclusive = small, poorly fitted or top-dose-only effect, or another doubt; inactive = no such curve, though single readings can be large; an effect the other way counts as inactive or inconclusive. Potency is read from the fitted curve at half-maximal effect.

SMILES	Cruzain Triton	RE007 growth inh	Cruzain noTriton	StopGo reporter	Marburg entry inh	NS1 function inh	SARS PLP yeast	LASV entry inh
CCc1cc2c(nc1CC)CCN(CC/C(C)=N/O[C@@H](C)c1cc(-c3c(C)cc(C)cc3C)no1)C2	-4.7%	nt	-1.6%	nt	?	-72.1%	-20.2%	-9.2%
CCCCNC(=O)c1ccc2c(OCC)n(CCCC)nc2c1	5.2%	-10.6%	0.6%	1.2%	nt	-11.2%	-6.0%	nt
CCc1ccc2nc(N3CCC(C(=O)N4CCC5(CC4)OCCO5)CC3)sc2c1	nt	-8.1%	nt	-11.3%	-25.8%[46.1 µM]	nt	-5.0%	-26.4%[46.1 µM]
Cc1c2cnn(CC(=O)Nc3ccc(F)cc3F)c(=O)c2c(C)n1Cc1cccc(Cl)c1	-2.6%	nt	-4.1%	?	20.6%[46.1 µM]	nt	nt	22.4%[46.1 µM]
CCc1ccc(C(=O)COC(=O)[C@@H](NC(N)=O)[C@@H](C)CC)cc1	nt	25.4%	nt	15.3%	3.0%[46.1 µM]	6.6%	-1.5%	3.8%
O=c1cc(CSc2nnnn2-c2ccccc2)[nH]c2[nH]n(-c3ccccc3)c(=O)c12	-7.5%	-0.3%	-15.4%	-14.8%	-13.7%[46.1 µM]	?	5.9%	5.2%
C[C@H](NC(=O)C1(c2ccccc2)CCN(C(=O)OC(C)(C)C)CC1)C(=O)N[C@@H](C(=O)O)c1ccccc1	nt	10.4%	nt	-7.6%	nt	15.3%	0.4%	nt
CCC1(c2ccccc2)NC(=O)N(CC(=O)Nc2cc(C(F)(F)F)ccc2N2CCCC2)C1=O (stereo not drawn)	nt	-16.3%	nt	-16.0%	-6.8%	nt	1.3%	-22.0%
CN(CC1CCCO1)S(=O)(=O)c1ccc(C(=O)Nc2ccc(S(N)(=O)=O)cc2)cc1 (stereo not drawn)	nt	-13.8%	nt	-11.3%	2.4%[46.1 µM]	5.2%	0.398µM*	-1.8%[46.1 µM]
COc1ccc(OCc2cc(C(=O)N(C)CCC3CCOCC3)no2)c(Cl)c1	nt	2.6%	nt	-3.2%	nt	-24.4%	-4.3%	nt
O=C(Nc1nc2cc3c(cc2s1)OCCO3)c1cccs1	nt	-28.4%	nt	?	nt	-44.8%	-0.6%	nt
O=C(COC(=O)/C=C/c1cccs1)NC1CC1	nt	0.6%	nt	-15.7%	?	0.2%	-0.8%	?
COc1ccc(OC(=O)c2ccc(OC)c(S(=O)(=O)N3CCOCC3)c2)cc1	nt	10.1%	nt	-12.5%	-4.5%	-14.6%	0.6%	-7.7%
COCCOC(=O)C1=C(C)NC(=S)NC1/C=C/c1ccccc1 (stereo not drawn)	-2.5%	-10.4%	-19.2%	-15.0%	-16.4%	14.8%	7.7%	-3.3%
Cc1csc(NC(=O)COc2ccc3c(C)cc(=O)oc3c2)n1	4.7%	-16.3%	2.9%	19.6%	-10.1%	-1.0%	-3.1%	27.5%[14.3 µM]
CCCCCSc1nc2c(cnn2-c2ccccc2)c(=O)[nH]1	1.3%	17.7%	?	-27.8%	-28.3%[46.1 µM]	5.8%	0.4%	2.1%
COc1ccc(C2=NN(c3ccc(C=O)cc3)C(c3ccccc3)C2)cc1 (stereo not drawn)	nt	-21.3%	nt	2.6%	?	?	-1.7%	?
O=C(NC1CCCCCC1)c1cc2c(Cl)nc3ccccc3c2s1	3.9%	nt	-4.3%	-1.9%	26.4%[46.1 µM]	nt	nt	20.0%[46.1 µM]
O=c1[nH]c(CSc2ccccc2)nc2c1oc1ccccc12	nt	-0.2%	nt	5.2%	nt	-2.4%	-0.8%	nt
Cn1c(SCc2cccc(Br)c2)nnc1-c1ccccn1	nt	4.0%	nt	4.7%	18.5%[46.1 µM]	-40.0%	0.2%	11.4%
O=C(Nc1nc2c(s1)CCCC2)c1ccc(Br)o1	0.1%	-13.5%	-6.8%	-25.7%	?	-79.7%	-14.5%	?
CSc1nc(NC(C)=O)nc(C)c1Br	0.5%	-6.3%	-15.3%	-18.3%	20.1%	-2.4%	-2.6%	16.7%
CC(=O)NCCc1nc2ccccc2n1CCOc1ccccc1C	nt	-4.8%	nt	-8.8%	nt	-2.1%	0.2%	nt
COC(=O)c1sc(=S)n(-c2ccccc2)c1N	-4.2%	-6.4%	3.9%	4.4%	5.8%	-110.8%	-5.4%	-4.4%
CCOc1ccccc1C(=O)N(Cc1ccc(N(C)C)cc1)CC1CCCO1 (stereo not drawn)	-0.8%	nt	0.9%	8.3%	10.3%[46.1 µM]	nt	nt	-13.4%[46.1 µM]
COc1cccc(CC(=O)NCC2COc3ccccc3O2)c1OC (stereo not drawn)	6.4%	14.6%	-2.0%	nt	-6.8%	-7.0%	-0.2%	-1.8%
Cc1ccc(S(=O)(=O)N2CCCCC2C(=O)N2CCN(C)CC2)cc1 (stereo not drawn)	-11.9%	-20.0%	-29.7%	-6.1%	9.6%[46.1 µM]	-2.2%	-1.6%	0.2%
N#CC(C#N)=Cc1ccc(N2CCOCC2)cc1	nt	9.7%	nt	-12.2%	nt	-38.8%	7.0%	nt
CCN(CC)S(=O)(=O)c1ccc2c(c1)c(=O)c(C(=O)N1CCN(c3ccccn3)CC1)cn2C	nt	-8.5%	nt	11.6%	nt	-5.7%	-0.4%	nt
CC(C)(O)c1[nH]c2cc(C(F)(F)F)ccc2c1C(C)(C)O	nt	11.7%	nt	-7.5%	nt	-20.7%	-14.4%	nt
CC(Sc1cccc2cccc(C(=O)O)c12)C(=O)O (stereo not drawn)	1.3%	15.5%	2.5%	-16.3%	1.0%[46.1 µM]	-13.0%	1.2%	14.5%
Cc1cc(C(=O)CCC(=O)N2CCN(c3ccccc3)CC2)c(C)s1	nt	-8.1%	nt	-0.5%	-27.5%[46.1 µM]	nt	-0.5%	3.8%
CC(C)c1nc(NCCN2CCOCC2)c(C#N)c2c1COC(C)(C)C2	-9.6%	-13.6%	4.9%	?	-7.2%&-7.2%[46.1 µM]	-8.5%	-12.0%	6.4%
O=C(Cn1c(=O)oc2cc(S(=O)(=O)NC3CCCC3)ccc21)Nc1ccc(F)c(F)c1	-5.6%	nt	0.4%	30.8%[activator]	-12.5%[46.1 µM]	nt	nt	nt
C=CC(=O)N1C/C(=C/c2ccc(Cl)cc2)C(=O)/C(=C\c2ccc(Cl)cc2)C1	nt	-2.5%	nt	8.91µM*	?	nt	nt	2.24µM*
Cc1cccnc1NC(=S)NC(=O)/C=C/c1ccco1	-9.2%	?	-1.7%	38.5%[activator]	16.3%	5.9%	20.8%	?
CN(C(=O)c1cccs1)c1ccc(OCC(=O)Nc2ccc(C(=O)O)cc2)cc1	nt	-13.3%	nt	-17.3%	nt	-0.3%	-0.3%	nt
CC(=O)N1CCN(c2ccccc2NC(=O)c2cccs2)CC1	nt	11.3%	nt	-24.0%	nt	8.8%	-0.1%	nt
COc1ccc(CNC(=O)c2cc3sccc3n2Cc2ccc(C)cc2)cc1	-11.2%	nt	-18.8%	44.9%[activator]	-29.7%[46.1 µM]	nt	nt	-2.8%[46.1 µM]
Cc1ccc(C)c(S(=O)(=O)Nc2ccc3c(c2)CCCN3C(=O)c2cccs2)c1	-5.6%	nt	?	-8.9%	nt	nt	nt	?
CCC(C)(C)n1nnnc1CN1CCN(c2ccc(OC)cc2)CC1	nt	-3.5%	nt	-8.2%	nt	1.5%	1.0%	nt
CCOC(=O)c1csc(CCNC(=O)c2oc3c(Cl)cc(C)cc3c2C)n1	nt	1.6%	nt	1.7%	?	17.3%	-1.3%	6.6%
COc1ccc(-c2cc(-c3ccccc3)c(C#N)c(S(C)(=O)=O)n2)cc1	?	5.1%	?	39.8µM*	?	3.9%	4.0%	?
CCn1c(Sc2ccc(N)cc2Cl)nc2ccccc21	-5.1%	6.5%	2.3%	nt	6.0%	-30.1%	4.7%	27.0%
O=C(NC1CCCC1)C(c1ccsc1)N(C(=O)Cc1cccs1)c1ccccc1 (stereo not drawn)	10.3%	9.5%	10µM*	nt	-5.6%	3.2%	-4.4%	13.6%
CCCCNC(=O)C(NS(=O)(=O)c1cccc2nsnc12)c1ccccc1 (stereo not drawn)	2.8%	19.9%	11.7%	6.0%	?	-3.3%	?	-9.7%
O=C(c1cnc2ccccn2c1=O)N1CCc2ccccc21	-0.4%	-0.9%	-0.8%	4.7%	11.1%	1.2%	2.1%	?
O=C(O)CSc1nc2ccccc2n1C1CCCCC1	nt	1.7%	nt	-17.8%	15.7%[46.1 µM]	-0.2%	1.3%	13.5%
CCOC(=O)c1ccc(N2CCCCC2)c(NS(=O)(=O)c2cccc(C(F)(F)F)c2)c1	nt	11.2%	nt	0.0%	nt	?	-3.0%	nt
CCN(c1cccc(C)c1)S(=O)(=O)c1ccc2c(c1)CCN2C(C)=O	-0.2%	2.7%	?	?	?	-32.9%	-2.7%	?
Cc1cc(C(=O)N/N=C/c2ccc(O)c([N+](=O)[O-])c2)c(C)n1-c1ccc(F)cc1	-10.4%	3.0%	10µM*	13.9%	?	0.8%	-4.2%	-1.8%
COc1cc(C)c(CNC2CCCCC2)cc1C	2.1%	-5.8%	-5.3%	nt	?	-11.3%	7.5%	12.5%
CSCCC(NS(=O)(=O)c1ccc2c(c1)oc(=O)n2C)C(=O)NC1CCCCC1 (stereo not drawn)	1.3%	-3.0%	1.8%	-24.6%	0.4%&0.4%	12.8%	-7.5%	-4.1%
OC1Cc2ccccc2C1Nc1cccc(C(F)(F)F)c1 (stereo not drawn)	nt	-1.9%	nt	-6.8%	5.4%	nt	nt	-18.5%
